Bioassay records deposited in PubChem BioAssay by National Center for Advancing Translational Sciences (NCATS).
miR-21 reporter = qHTS Assay for Modulators of miRNAs and/orActivators of miR-21; 340,000 tested, under 10 active; Potency, µM (doses to about 38.3 µM), for the others: at the highest dose reporter change, positive = more light; HeLa miR-21 FLuc reporter, luciferase, 48 h; AID 2288, 2010; active = well fitted rising curve with a large enough effect; inconclusive = small, poorly fitted or top-dose-only effect; inactive = no such curve, though single readings can be large or run the other way;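 note: % of control where 0% means no effect; miR-21 action dims this reporter so a rising signal means less miR-21 action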
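Compounds were titrated across several concentrations (up to approximately 40 uM) and incubated 48 hours with HeLa miR-21-FLuc reporter cells (miR-21 target sequence downstream of FLuc, endogenous miR-21). Readout was firefly luciferase luminescence after lytic detection reagent.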
GLA inh pH 4.5 = qHTS Assay for Inhibitors of Human alpha-Galactosidase at pH 4.5. Alpha-galactosidase A (Homo sapiens), P06280. purified enzyme, 4-MU-alpha-Gal fluorescence, pH 4.5. activity change, negative = inhibition, % at 105 µM. 230,000 tested, under 10 active. AID 1467, 2008; inconclusive = small, poorly fitted or top-dose-only inhibition, or a rising curve; inactive = flat fitted curve, though single readings scatter; no compound was filed as active;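 note: 0% = full activity with enzyme and -100% = basal without enzyme; dose as in the result columns while the protocol names 77 µM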
Rango complex inh = qHTS Assay for Inhibitors of Rango (Ran-regulated importin-beta cargo) - Importin beta complex formation; hit rate 0.031% among 340,000; Potency, µM (top dose mostly 92.2 µM), for inactives: at the highest dose inhibition of complex formation; Importin subunit beta-1 (Homo sapiens), Q14974; Rango CFP/YFP FRET sensor + importin beta, 45 min; active = rising FRET ratio curve, often small or poorly fitted; inconclusive = mostly compound fluorescence or quenching in the first reads; inactive = flat curves in all reads;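 note: potency is the fitted concentration of half-maximal effect; 0% = DMSO wells and 100% = buffer wells lacking importin beta; nearly all actives have a fitted effect of over 15% in size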
Target sequence (Q14974 whole entry, looked up): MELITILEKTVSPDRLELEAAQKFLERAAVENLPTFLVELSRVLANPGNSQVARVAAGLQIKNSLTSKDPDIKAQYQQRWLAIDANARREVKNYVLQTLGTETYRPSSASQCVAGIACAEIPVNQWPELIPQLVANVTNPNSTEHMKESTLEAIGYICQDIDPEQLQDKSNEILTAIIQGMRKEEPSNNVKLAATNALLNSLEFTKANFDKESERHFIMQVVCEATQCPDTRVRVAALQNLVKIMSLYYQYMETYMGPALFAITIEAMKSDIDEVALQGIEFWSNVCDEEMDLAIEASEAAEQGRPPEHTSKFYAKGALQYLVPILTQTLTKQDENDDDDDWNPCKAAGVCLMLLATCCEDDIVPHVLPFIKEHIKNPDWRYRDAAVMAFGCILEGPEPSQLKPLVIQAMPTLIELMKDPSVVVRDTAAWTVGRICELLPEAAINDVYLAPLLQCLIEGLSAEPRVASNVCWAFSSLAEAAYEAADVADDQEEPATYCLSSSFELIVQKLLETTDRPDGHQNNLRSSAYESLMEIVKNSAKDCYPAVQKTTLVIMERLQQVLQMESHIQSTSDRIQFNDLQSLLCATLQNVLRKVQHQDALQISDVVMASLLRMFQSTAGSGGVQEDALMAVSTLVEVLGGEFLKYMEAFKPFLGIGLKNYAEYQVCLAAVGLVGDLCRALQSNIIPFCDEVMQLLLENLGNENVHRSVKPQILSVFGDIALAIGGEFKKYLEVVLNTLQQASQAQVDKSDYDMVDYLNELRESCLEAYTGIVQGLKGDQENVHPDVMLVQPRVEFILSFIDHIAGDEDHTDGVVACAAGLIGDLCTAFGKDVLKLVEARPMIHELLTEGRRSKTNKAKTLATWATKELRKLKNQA
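FRET biosensor (snurportin 1 IBB flanked by EYFP and cerulean), 50 nM, with compound 5 min, then 0.125 microM importin beta in PBS, 1 mM DTT, 0.02% Tween-20, 0.1% BSA. CFP/YFP ratio read after 45 min at room temperature; pre-read flags interference.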
Rango dissoc inh = qHTS Assay for Inhibitors of RanGTP induced Rango (Ran-regulated importin-beta cargo) - Importin beta complex dissociation. Potency, µM (top dose mostly 46.1 µM), without a hit: at the highest dose activity change, negative = inhibition. Biochemical FRET Rango-importin beta, RanGTP-induced dissociation. Snurportin-1 (Homo sapiens) + GTP-binding nuclear protein Ran (Homo sapiens) + Importin …. hit rate 0.071% among 340,000; active means falling FRET ratio curve, often poorly fitted, with flat reads before Ran was added; inconclusive means other falling curves, or compound fluorescence or quenching; inactive means flat or rising ratio curve;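 note: potency is the fitted concentration of half-maximal effect; % of control where 0% means no effect; nearly all actives have a fitted effect of over 45% in size; -100% = wells without RanGTP and RCC1; the record marks most hits as doubtful in a second field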
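Rango FRET biosensor (snurportin-1 IBB flanked by N-terminal EYFP and C-terminal CFP10) at 0.1 uM, with 0.25 uM importin beta in PBS, 1mM DTT, 0.02% Tween-20, 0.1% BSA. 0.6 uM Ran, 2mM GTP and 0.2 uM RCC1 were then added for 45 min at room temperature. Inhibition read as loss of FRET rise.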
The depositor's hits bear a star; u = inconclusive; x = no result given; & = joins results of further samples; [ ] = another dose, or the depositor's remark. Only part of the results is shown; count on the stated rates, not on these rows.

SMILES	miR-21 reporter	GLA inh pH 4.5	Rango complex inh	Rango dissoc inh
OC(CNC1CCCCC1)C(F)(F)F (stereo not given)	0%	1	2.8%	-10%
COc1ccc(C(=O)OC2C[C@H]3CC[C@H](C2)N3C)cc1OC (stereo not given in full)	x	x	-0.1%	17%
C#C[C@]1(O)CCC2C3C(=O)C=C4C(Cl)=CCC[C@]4(C)C3CC[C@@]21C (stereo not given in full)	x	x	u	u
CCOC(=O)c1c(C)n(CCN2CCN(C)CC2)c2ccc(OC)cc12	-10%	-6	8.4%	-3%
CCOC(=O)C1=C(N)Oc2cc(C)oc(=O)c2C12C(=O)N1c3c(cccc32)C(C)=CC1(C)C (stereo not given)	-5%	-4	-3.1%	1%
C/C(=N\Nc1ccccc1)c1c(O)n(Cc2ccccc2)c(=O)[nH]c1=O	9%	20	-3.4%	17%
O=C(CN1CCCC1=O)Nc1ccccc1	-2%	-10	-4.1%	-12%
O=C(NCC(c1cccnc1)N1CCN(c2ccccc2)CC1)Oc1ccccc1 (stereo not given)	-5%	0	-1.1%	-11%
COc1cc(CC(C)N)c(OC)cc1I (stereo not given)	x	-7	0.2%	-13%
CC(NCc1cccc(Cl)c1Cl)C(O)c1ccccc1 (stereo not given)	-21%	2	-0.9%	1%
O=c1[nH]c(=O)n(-c2ccc(Br)cc2)c(O)c1C=NC(CO)(CO)CO	-1%	8	0.4%	-5%
CN1C(=O)C(=CN2CCN(C(=O)c3ccco3)CC2)C(=O)N(C)C1=S	5%	-9	-0.1%	-12%
O=P(O)(O)c1ccccc1OCCOCCOCCOCCOc1ccccc1P(=O)(O)O	-42%	5	-0.3%	3%
CCC(=Nc1ccc2c(c1)CCC2)c1c(O)n(-c2ccc(OC)cc2)c(=O)[nH]c1=O	1%	-9	-3.6%	5%
CC(=O)Nc1ccccc1C(=O)OCc1cccc(F)c1	-42%	10	-3.4%	-9%
Cc1cc(/C=C2\C(=O)NC(=O)N(Cc3ccco3)C2=O)c(C)n1-c1ccc(C(=O)O)cc1	3%	-4	u	-23%
O=C(c1cc(S(=O)(=O)N2CCC3(CC2)OCCO3)ccc1F)N1CCC2(CC1)OCCO2	2%	7	-0.2%	-24%
CN1CC(C(=O)c2cccc(C(F)(F)F)c2)C(c2ccc(Cl)cc2)C1 (stereo not given)	4%	x	-0.5%	-2%
CCC(CC)NC1CCCCC1OC (stereo not given)	0%	-10	0.5%	1%
CC(=O)Nc1ccc(S(=O)(=O)N2Cc3cnnn3-c3ccccc3C2C#N)cc1 (stereo not given)	x	x	0.5%	6%

The final two compounds of the section above are carried over, then new ones follow:
SMILES	miR-21 reporter	GLA inh pH 4.5	Rango complex inh	Rango dissoc inh
CCC(CC)NC1CCCCC1OC (stereo not given)	0%	-10	0.5%	1%
CC(=O)Nc1ccc(S(=O)(=O)N2Cc3cnnn3-c3ccccc3C2C#N)cc1 (stereo not given)	x	x	0.5%	6%
COc1ccc(-c2nn(CCC#N)cc2C(=O)Nc2cccc([N+](=O)[O-])c2)cc1OC	-4%	x	0.4%	-17%
O=C(C[N+]12CCC(CC1)C(O)C2)c1ccc(Br)cc1 (stereo not given)	-1%	x	2.2%	0%
O=C1C2CCCN2C(c2ccncc2)N1c1ccc(Cl)c(Cl)c1 (stereo not given)	-14%	-1	1.5%	2%
O=C(c1ccc(Cl)cc1)C1CCCN(Cc2ccc3nonc3c2)C1 (stereo not given)	-1%	-2	2.1%	7%
CCOC(=O)C1=C(C)OC(N)=C(C(=O)OCC)[C@@]12C(=O)N(CC(N)=O)c1ccccc12	-5%	x	-0.8%	4%
O=C(c1ccccc1F)c1cn(Cc2ccc(F)cc2)c2ccccc12	-2%	-6	u	x
C[C@]12CC[C@H](OC(=O)CCC(=O)O)CC1=CCC1C2CC[C@@]2(C)C1CC[C@@H]2OC(=O)CCC(=O)O (stereo not given in full)	x	x	0.7%	8%
COc1ccc(Cn2c(O)c(C=Nc3c(C)n(C)n(-c4ccccc4)c3=O)c(=O)[nH]c2=O)cc1	-5%	9	-0.2%	-6%
Cc1cc(OC(=O)N(C)C)nc(-c2ccc(C)c(Cl)c2)n1	-30%	-5	-4.0%	32%
OC(CNCCc1c[nH]c2ccccc12)c1ccccc1 (stereo not given)	-9%	x	-0.9%	0%
O=Cc1cn(Cc2ccc([N+](=O)[O-])cc2)c2ccccc12	10%	3	-1.6%	-1%
C=CCN1C(=O)/C(=C/c2ccc(Br)s2)C(=O)NC1=S	u	x	u	-30%
CC1OC(OC2C=C3CCC4C(CCC5(C)C(c6ccc(=O)oc6)CCC45O)C3(C)CC2)C(O)C(OC2OC(CO)C(O)C(O)C2O)C1O (stereo not given)	x	x	-1.9%	-8%
CN1CCN(c2cc([N+](=O)[O-])ccc2Cl)CC1	0%	0	0.4%	-13%
CN1CCc2c(C#N)c(Cl)nc(Cl)c2C1	-7%	u	u	-26%
CCCC1=C(C(=O)OCC)C2(C(=O)Nc3ccccc32)C(C#N)=C(N)O1 (stereo not given)	2%	0	-1.4%	-1%
COc1ccc(CCn2c(O)c(C=NCCCO)c(=O)[nH]c2=O)cc1OC	-3%	6	-0.7%	45%
CC(=O)N1CN(C(C)=O)CN(C(C)=O)C1	2%	-11[21.1 µM]	5.9%	-4%
COc1cc(CN2CCN(C(=O)COc3ccccc3)CC2)cc(OC)c1OC	-10%	-2	4.1%	6%
COc1cc(CNCCc2ccc3c(c2)OCO3)ccc1O	-5%	x	-0.8%	-12%
CCOP(=O)(OCC)/C(C#N)=C/c1ccc(Br)cc1	2%	-4	0.8%	-2%
COc1ccc(CCn2c(O)c(C=NCCN3CCCCC3)c(=O)[nH]c2=O)cc1OC	-1%	0	-2.3%	1%
CN1CCN(c2ncnc(Cl)c2N)CC1	-4%	9	1.0%	-15%
CCOC(=O)c1sc(/N=C/c2c(O)n(-c3cccc(C)c3)c(=O)[nH]c2=O)c(C#N)c1C	-18%	2	4.0%	-9%
COP(=O)(OC)/C(C=O)=N/Nc1ccc([N+](=O)[O-])cc1	9%	6	-6.1%	u
Cc1nc2nc(SCC(=O)N3CCC4(CC3)OCCO4)nn2c(C)c1Cc1ccccc1	-1%	-8	-2.8%	4%
N=Cc1c(O)n(-c2ccc(C34CC5CC(CC(C5)C3)C4)cc2)c(=O)[nH]c1=O	-32%	4	-2.0%	0%
O=c1[nH]c(N2CCN(Cc3ccc4c(c3)OCO4)CC2)nc2c1CCC2	-2%	-4	-9.4%	-1%
CN1C(=O)C(=Cc2coc3ccccc3c2=O)C(=O)N(C)C1=O	-14%	-1	-1.5%	-4%
COc1ccc(CCNCc2ccccc2F)cc1OC	-9%	-7	1.1%	2%
CC12CN3CC(C)(CN(C1)C3c1cccs1)C2O (stereo not given)	0%	x	-3.5%	3%
CCN(CCCl)Cc1ccccc1Br	x	2	0.5%	-7%
COc1nc(NCC2CCCO2)nc(N2CC3CC(C2)c2cccc(=O)n2C3)n1 (stereo not given)	-1%	7	-0.6%	23%
CC/C(=C(\c1ccc(O)cc1)c1ccc(OCCN(C)C)cc1)c1ccccc1	u	-18	3.3%	1%
CCn1c(O)c(/C=N/N2CCOCC2)c(=O)n(CC)c1=S	13%	1	u	-12%
Cn1c(O)c(C(=O)c2ccccc2F)c(=O)n(C)c1=O	-3%	5	-3.4%	8%
O=C1N=C(N2CCCCC2)SC1=C1CCCCC1	-50%	3	4.2%	-13%
CCOC(=O)N1CCC(NC(=O)CCc2nc(C3=CCN(C)CC3)no2)CC1	-1%	5	u	2%&-2%
CN1/C(=C\C=C2C(=O)NC(=S)NC2=O)C(C)(C)c2ccccc21	0%	-6	u	u
COC(=O)C1=C(c2ccc(-c3ccccc3)c(F)c2)C[C@@H]2CC[C@H]1N2C(=O)NCCOc1ccccc1Cl	x	x	5.6%	21%

Three compounds from above, ordered by molar mass, high to low:
SMILES	miR-21 reporter	GLA inh pH 4.5	Rango complex inh	Rango dissoc inh
COc1nc(NCC2CCCO2)nc(N2CC3CC(C2)c2cccc(=O)n2C3)n1 (stereo not given)	-1%	7	-0.6%	23%
CCOP(=O)(OCC)/C(C#N)=C/c1ccc(Br)cc1	2%	-4	0.8%	-2%
COc1ccc(CCNCc2ccccc2F)cc1OC	-9%	-7	1.1%	2%

Continued.
SMILES	miR-21 reporter	GLA inh pH 4.5	Rango complex inh	Rango dissoc inh
CC12CCC3c4ccc(OC(=O)N(CCCl)CCCl)cc4CCC3C1CCC2O (stereo not given)	x	x	1.0%	-3%
CCC(=O)Nc1ccc(C(=O)OCc2ccccc2Cl)cc1	-45%	-3	-1.7%	-11%
Cn1cc(C(=O)OCC(=O)NC2(C#N)CCCC2)c2ccccc21	x	x	3.5%	4%
O=c1[nH]c(O)c(N=Nc2cccc(S(=O)(=O)N3CCOCC3)c2)c(=O)[nH]1	-2%	-3	-2.8%	-12%
CC(=O)N1CN2CN(C(C)=O)CC(C(=O)c3ccc(Br)cc3)(C2)C1	-4%	-2	6.6%	22%
COc1ccc(OC)c(C2=NOC(C(=O)N3CCC4(CC3)OCCO4)C2)c1 (stereo not given)	-4%	0	-2.7%	4%
CC1CCN(C(CC(=O)c2ccccc2)C(=O)c2ccccc2)CC1 (stereo not given)	x	x	1.6%	-4%
OC(CC#CCN1CCCCCC1)(c1ccccc1)C1CCCC1 (stereo not given)	13%	x	-0.6%	2%
COc1cc(/C=N/NC(=O)Cn2c([N+](=O)[O-])cnc2C)ccc1OC(=O)N(C)C	2%	10	-4.4%	5%
O=C1NC(=S)N(c2ccc(F)cc2)C(=O)/C1=C\c1ccoc1	1%	2	u	u
COc1cc2c(cc1OC)C(C(=O)NCCC(C)C)C1CCCCN1C2=O (stereo not given)	-8%	-14	0.2%	6%
Cc1[nH]c2ccc(OCc3ccccc3)cc2c1CCN	-4%	x	-0.1%	7%
COC(=O)C1=C(c2cccc(C#N)c2)C[C@@H]2CC[C@H]1N2C(=O)NC1CC1	x	x	-1.0%	-1%
Fc1ccc2c(c1)nnn2C1CCN(Cc2c(Cl)cccc2Cl)CC1	-9%	-1	-0.5%	-17%
C[C@]12CCC3=C4CCC(=O)C=C4CC[C@H]3C1CC[C@@H]2O (stereo not given in full)	-12%	x	-0.8%	25%
COC(=O)C1=C(c2ccccc2OCc2ccccc2)C[C@@H]2CC[C@H]1N2C(=O)NCCOc1ccc(OC)cc1	x	x	-0.6%	-17%
CCC1(OC(=O)c2ccccc2)CC(C)N(C)CC1C (stereo not given)	0%	x	5.6%	4%
CCN(CC)CCCNC(=O)c1c(O)c2ccccc2n(Cc2ccccc2)c1=O	u	-2	5.8%	-12%
CCN(CC)S(=O)(=O)c1ccc(NN=C(C#N)C#N)cc1	-1%	2	-3.7%	0%
O=C(CNC(=O)c1ccccc1Cl)Nc1ccc(Br)cc1C(=O)c1ccccc1	10%	-7	0.7%	-1%
COc1ccccc1CN1CCN(C(=O)COc2ccc3ccccc3c2)CC1	-4%	x	u	-20%
C[C@H]1CC[C@@H]2N(C1)C[C@H]1[C@@H]3C[C@H]4[C@@H](CC(=O)[C@H]5C[C@@H](O)CC[C@@]54C)[C@@H]3CC[C@H]1[C@]2(C)O	1%	x	1.8%	-9%
O=C1NC(=S)N(c2ccc(F)cc2)C(=O)/C1=C/c1ccccc1O	-4%	x	3.5%	1%
COC(=O)N1CCN(C(=O)Cc2ccc(Cl)c(Cl)c2)C(CN2CCCC2)C1 (stereo not given)	-6%	-3&0	x	x
Clc1ccc(OCC#CCN2CCOCC2)cc1	-39%	0	3.2%	8%
CC(Cc1ccccc1)NC=O (stereo not given)	0%	x	-1.4%	6%
C[N+](C)(C)CC#CCOC(=O)Nc1cccc(Cl)c1	x	0	-0.9%	-9%
